D2 ag – Beta-Arrestin HTS for Positive Allosteric Modulators of the Human D2 Dopamine Receptor: Agonists; 360,000 compounds, 0.084% hits; activation, % (no concentration beside the values); DiscoveRx PathHunter D2 beta-arrestin, luminescence, 90 min; 100% = 57 uM dopamine signal; in the data active = activation above about 40%; inconclusive = about 15% to 40%; inactive = below about 15%; also: compound concentration not given in the record; the text of the record calls up to 30% inactive
Target sequence (P14416 whole entry, looked up): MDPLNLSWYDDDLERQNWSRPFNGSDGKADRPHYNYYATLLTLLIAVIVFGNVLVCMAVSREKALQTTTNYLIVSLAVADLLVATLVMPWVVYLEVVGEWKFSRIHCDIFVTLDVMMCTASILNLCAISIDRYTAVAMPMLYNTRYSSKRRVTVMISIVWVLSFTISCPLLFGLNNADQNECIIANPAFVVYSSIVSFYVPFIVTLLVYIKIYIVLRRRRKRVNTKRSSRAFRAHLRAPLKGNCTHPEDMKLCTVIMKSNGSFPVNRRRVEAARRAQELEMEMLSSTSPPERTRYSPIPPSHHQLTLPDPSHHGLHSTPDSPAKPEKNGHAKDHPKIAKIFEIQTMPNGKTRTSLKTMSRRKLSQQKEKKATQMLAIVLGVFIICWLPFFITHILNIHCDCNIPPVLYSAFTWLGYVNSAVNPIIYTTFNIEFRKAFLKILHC
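Agonist mode: compounds alone added to overnight-plated D2 PathHunter cells for 90 min at 37 C, with 57 uM final dopamine (EC100) defining full response. Beta-arrestin recruitment detected by chemiluminescent reagent, read after 1 h at ambient temperature.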
gsp agonist – qHTS for Agonist of gsp, the Etiologic Mutation Responsible for Fibrous Dysplasia/McCune-Albright Syndrome: qHTS; gsp mutant cells, cAMP HTRF, 30 min; control for the full effect not named in the record; Potency, µM (titrated, usually from 76.9 µM), without a hit: at the highest dose activation (cAMP increase), usual class: activators; 340,000 compounds, 0.13% hits; AID 624287, 2012; active = well fitted activation curve with a large enough effect; inconclusive = small, poorly fitted or top-dose-only effect, or another doubt; inactive = no such curve, though single readings can be large or run the other way; cell line not stated here;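 also: phosphodiesterase inhibitor Ro 20-1724 added with compounds to block cAMP breakdown; potency is read from the fitted curve at half-maximal effect; nearly all actives have a fitted effect of over 60% in size; about a fifth of the inactives were tested at one dose only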
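Cells stably selected in G418 were plated at 2000/well, grown 16-24 hr, then given compounds in DMSO with the PDE inhibitor […] (300 uM solution added) for 30 min at 37C; cAMP was read by HTRF.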
gsp antagonist – qHTS for Antagonists of gsp, the Etiologic Mutation Responsible for Fibrous Dysplasia/McCune-Albright Syndrome: qHTS; AID 624288, 2012; 340,000 compounds, 0.4% hits; Potency, µM (top dose mostly 76.9 µM), without a hit: at the top dose activity change, negative = inhibition, hits mostly inhibitors; gsp-mutant cells, cAMP HTRF, 30 min; control for the full effect not named in the record; active = falling curve of any shape with a large fitted effect; inconclusive = falling curve, mostly with a smaller effect; inactive = flat or rising curve; cell line not stated here;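 also: intracellular cAMP measured with PDE inhibitor Ro 20-1724 present during compound exposure; potency is read from the fitted curve at half-maximal effect; % is scaled to controls: 0 for no effect and ±100 for the full control effect; nearly all actives have a fitted effect of over 65% in size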
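G418-selected cells were plated in DMEM/10% FBS for 16-24 h at 37C, then treated with compounds plus the PDE inhibitor […] (300 uM solution added) for 30 min at 37C. Intracellular cAMP was measured by HTRF after 30 min lysis at room temperature.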
D2 PAM – Beta-Arrestin HTS for Positive Allosteric Modulators of the Human D2 Dopamine Receptor: Potentiators; DiscoveRx D2 beta-arrestin cells, luminescence, 90 min; 100% = 57 uM dopamine signal; potentiation, % (concentration not given with the values); 360,000 compounds, 0.23% hits; AID 624464, 2012; active = potentiation of 50% or more; inconclusive = 30% to 50%; inactive = 30% or less;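 also: tested on top of an EC20 dose of dopamine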
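PathHunter beta-arrestin assay in DiscoveRx D2 cells. Compounds were added with an EC20 of dopamine (50 nM final) for 90 min at 37 deg C. Luminescence was read 1 h after detection reagent, with 57 uM dopamine as the EC100 control.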
Six1-Eya2 inh – qHTS Assay for Inhibitors of the Six1/Eya2 Interaction; Homeobox protein SIX1 (Homo sapiens) + Protein phosphatase EYA2 (Homo sapiens), …; AlphaScreen GST-Six1/His-Eya2 binding, biochemical; stronger effect = lower value; control for the full effect not named in the record; activity change, % (no concentration beside the values); 360,000 compounds, 0.56% hits; AID 651725, 2012; in the data active = activity change below about -65%; inconclusive = about -30% to -65%; inactive = above about -30%; also: % is scaled to controls: 0 for no effect and ±100 for the full control effect
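Six1/Eya2 binding was read as AlphaScreen signal after compounds were pinned into GST-Six1 plus His-tagged Eya2 (5X stock 250/500 nM) in pH 8.0 Tris/NaCl/TCEP buffer, beads added, then incubated 1 h, 37 C, dark.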
CtBP-E1A blk – qHTS Assay for Inhibitors of the CtBP/E1A Interaction | AlphaScreen GST-E1A/His-CtBP binding, 1536-well; stronger effect = lower value; control for the full effect not named in the record | activity change, % (concentration not given with the values) | 340,000 compounds, 0.49% hits | AID 651724, 2012; in the data active means activity change below about -65%; inconclusive means about -30% to -65%; inactive means above about -30%; also: % is scaled to controls: 0 for no effect and ±100 for the full control effect
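In 5 uL wells, 23 nL compound meets equimolar GST-E1A and His-CtBP (5X stock 125 nM each) for 2 h, 37 °C. Beads (5X, 50 ug/mL) then 1 h, 37 °C, dark.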
An asterisk follows results filed as active; [ ] = remark or other dose.

Screening COc1ccc(CCNC(=O)C(=O)NCC2OCCN2S(=O)(=O)c2ccc(C)cc2)cc1OC (stereo not drawn) returned D2 ag -0.9, gsp agonist -55%[inhibitor], gsp antagonist -11%, D2 PAM -6, Six1-Eya2 inh 3 and CtBP-E1A blk 3.
Screening CN(CC(=O)Nc1ncn[nH]1)S(=O)(=O)c1ccc(Cl)cc1 returned D2 ag -3.2, gsp agonist 12%[15.4 µM], gsp antagonist 9%, D2 PAM 4, Six1-Eya2 inh -4 and CtBP-E1A blk 3.
COc1ccccc1N1CCN(S(=O)(=O)c2ccc([N+](=O)[O-])cc2)CC1 was read as D2 ag 7.3, gsp agonist -18%, D2 PAM 15, Six1-Eya2 inh -30 and CtBP-E1A blk -6.
COc1cccc(C(=O)Nc2ccc(NC(=O)C(C)(C)C)cn2)c1 was read as D2 ag -4.0, gsp agonist -31%[inhibitor], gsp antagonist -10%, D2 PAM -18, Six1-Eya2 inh -1 and CtBP-E1A blk -2.
`CC1(C(=O)Nc2cccc(Oc3ccccc3)c2)CCN1Cc1cccc2c1OCO2` (stereo not drawn) gave D2 ag -2.4, D2 PAM -5, Six1-Eya2 inh 1 and CtBP-E1A blk 2.
For CSCC[C@H](NC(=O)Nc1ccc(C)cc1C)C(=O)O the results were D2 ag 0.3, gsp agonist 13%, gsp antagonist -1%, D2 PAM 2, Six1-Eya2 inh 6 and CtBP-E1A blk 5.
Screening CCOc1ccc(S(=O)(=O)N2CCCCC2)c(C)c1C returned D2 ag -3.1, gsp agonist 11%, gsp antagonist -18%, D2 PAM 1, Six1-Eya2 inh 4 and CtBP-E1A blk 21.
CC(C)c1ccc(CN2CCN(S(=O)(=O)c3ccc(Cl)s3)CC2)cc1 was read as D2 ag 1.3, gsp agonist 2%, gsp antagonist -1%, D2 PAM 14 and Six1-Eya2 inh 4.
CCOC(=O)c1sc(NC(=O)C(C)(C)C)cc1C was read as D2 ag -0.6, gsp agonist 17%, gsp antagonist 3%, D2 PAM -5, Six1-Eya2 inh -13 and CtBP-E1A blk 2.
Screening Cc1noc(C)c1C(=O)N1CCC1(C)C(=O)NS(=O)(=O)c1ccc(Cl)cc1 (stereo not drawn) returned D2 ag -0.5, D2 PAM -7, Six1-Eya2 inh 5 and CtBP-E1A blk 0.
`Cn1c(=O)n(CCc2ccccc2)c2ccccc21` gave D2 ag -2.3, gsp agonist 15%[15.4 µM], gsp antagonist -1%, D2 PAM -3, Six1-Eya2 inh 5 and CtBP-E1A blk -3.
COc1ccccc1C(=O)Nc1c2c(nn1-c1cccc(C)c1C)CS(=O)(=O)C2 was read as D2 ag -0.6, gsp agonist -10%, gsp antagonist -1%, D2 PAM 1, Six1-Eya2 inh 0 and CtBP-E1A blk 5.
COc1ccc(CC(=O)NNC(=O)c2cc(Cl)ccc2OC)cc1 was read as D2 ag -2.1, gsp agonist 0%, gsp antagonist -15%, D2 PAM -5, Six1-Eya2 inh 7 and CtBP-E1A blk -19.
Screening Cc1cc(Br)cn2c(CC(C)(C)C)c(-c3cccc(Cl)c3)nc12 returned D2 ag -4.7, D2 PAM -2, Six1-Eya2 inh 3 and CtBP-E1A blk 5.
`Cc1ccc(N(C)S(=O)(=O)c2c[nH]c3ccc([N+](=O)[O-])cc23)cc1` gave D2 ag -1.2, gsp agonist inconclusive, gsp antagonist -10%, D2 PAM -6, Six1-Eya2 inh -9 and CtBP-E1A blk -5.
`C(=C\c1ccco1)/c1nc2ccccc2[nH]1` gave D2 ag -0.7, gsp agonist -200%[inhibitor], gsp antagonist -11%, D2 PAM -6 and Six1-Eya2 inh -3.
CCCn1c(=O)c(C(=O)N/N=C/c2ccc(F)cc2)c(O)c2ccccc21 was read as D2 ag -6.4, gsp agonist -2%, gsp antagonist 2%, D2 PAM -6, Six1-Eya2 inh 73 and CtBP-E1A blk 2.
`CCOCCn1c(COc2ccccc2)nc2ccccc21` gave D2 ag -1.1, gsp agonist 38%, gsp antagonist -1%, D2 PAM -17, Six1-Eya2 inh 4 and CtBP-E1A blk 8.
For CCCC(C(=O)NC1CCCC1)N(Cc1cccs1)C(=O)c1snc(C(N)=O)c1N (stereo not drawn) the results were D2 ag -4.0, gsp agonist -46%[inhibitor], gsp antagonist -20%, D2 PAM -7, Six1-Eya2 inh 0 and CtBP-E1A blk 8.
O=C(/C=C/c1ccccc1Cl)Nc1ccc2c(c1)C(=O)NC2=O was read as D2 ag -2.4, gsp agonist inconclusive, gsp antagonist 4%, D2 PAM -7, Six1-Eya2 inh 0 and CtBP-E1A blk -25.
For Cc1cccc(CN2CCC(Oc3ccc(C(=O)N4CCCC4)cc3)CC2)n1 the results were D2 ag -3.4, gsp agonist -6%, gsp antagonist 7%, D2 PAM -13, Six1-Eya2 inh 2 and CtBP-E1A blk -2.
CC(C)(C(N)=O)c1ccccc1 was read as D2 ag 2.2, gsp agonist 27%, gsp antagonist 7%, D2 PAM 3, Six1-Eya2 inh 8 and CtBP-E1A blk 7.
O=c1[nH]c(SCCN2CCOCC2)nc(O)c1-c1ccccc1 was read as D2 ag 0.3, gsp agonist 4%[15.4 µM], gsp antagonist -5%, D2 PAM -1, Six1-Eya2 inh 7 and CtBP-E1A blk 1.
C#CCNC(=O)C1=C[C@H](c2ccc(C#C)cc2)C[C@H](OCc2ccc(CO)cc2)O1 was read as D2 ag -0.8, gsp antagonist -4%, D2 PAM -43, Six1-Eya2 inh 0 and CtBP-E1A blk -1.
For COC(C[C@@H](O)[C@H](C)[C@@H](O)COCc1ccccc1)OC the results were D2 ag -3.1, gsp antagonist 11%, D2 PAM -9, Six1-Eya2 inh 0 and CtBP-E1A blk 11.
For CS(=O)(=O)CCC(C(=O)O)N1C(=O)c2ccc(Oc3ccc(Cl)cc3)cc2C1=O (stereo not drawn) the results were D2 ag -13, gsp agonist -36%, gsp antagonist 14%, D2 PAM 2, Six1-Eya2 inh 5 and CtBP-E1A blk 8.
`Cc1ccccc1CN1C(=O)c2ccccc2S(=O)c2ccc(C(=O)NCCCN3CCOCC3)cc21` (stereo not drawn) gave D2 ag -3.1, gsp agonist 5%, gsp antagonist 2%, D2 PAM -17, Six1-Eya2 inh 0 and CtBP-E1A blk -5.
For Cc1ccc2[nH]c3c(=S)nc[nH]c3c2c1 the results were D2 ag 1.8, gsp agonist 11µM*, gsp antagonist 31%[activator], D2 PAM -13, Six1-Eya2 inh -1 and CtBP-E1A blk -12.
`O=C(CN1C(=O)C2CCCCC2C1=O)OCn1nnc2ccccc2c1=O` (stereo not drawn) gave D2 ag -1.9, gsp agonist 12%[15.4 µM], gsp antagonist 11%, D2 PAM -6, Six1-Eya2 inh -2 and CtBP-E1A blk -19.
Screening CCOc1ccc(C(=O)N(CN2CCCC2=O)c2cccc(Cl)c2)cc1 returned D2 ag 2.5, gsp agonist -1%[15.4 µM], gsp antagonist -1%, D2 PAM -1, Six1-Eya2 inh -3 and CtBP-E1A blk -5.
`CC1=NN(c2ccc(Br)cc2)C(=O)/C1=C/c1ccc(-c2ccccc2C(=O)O)o1` gave D2 ag -2.9, gsp agonist inconclusive, gsp antagonist inconclusive, D2 PAM -6, Six1-Eya2 inh -4 and CtBP-E1A blk -16.
`CC1CCCN(C(=O)C2(NC(=O)Nc3cccc(F)c3)CCCCC2)C1` (stereo not drawn) gave D2 ag -2.7, gsp agonist -9%[15.4 µM], gsp antagonist -12%, D2 PAM 10, Six1-Eya2 inh -2 and CtBP-E1A blk 14.
`O=C1CCC(/C=C/c2ccccc2)=NN1` gave D2 ag 0.6, gsp agonist 0%[15.4 µM], gsp antagonist 0%, D2 PAM -5, Six1-Eya2 inh 4 and CtBP-E1A blk 7.
For COC(=O)c1ccc(/C=N/NC(=O)C(=O)N2CCCCCC2)cc1 the results were D2 ag 4.5, gsp agonist inconclusive, gsp antagonist 5%, D2 PAM -5 and Six1-Eya2 inh -2.
COCc1cc(CNC(=O)C2CCC(=O)N(Cc3cccc(OC)c3)C2)[nH]n1 (stereo not drawn) was read as D2 ag -1.2, gsp agonist -56%[inhibitor], gsp antagonist 9%, D2 PAM 20, Six1-Eya2 inh 1 and CtBP-E1A blk 8.
`CC(Sc1nnc(Nc2ccccc2)s1)C(=O)Nc1nc(-c2ccccc2)cs1` (stereo not drawn) gave D2 ag 3.5, gsp agonist -12%, gsp antagonist -12%, D2 PAM -6, Six1-Eya2 inh -13 and CtBP-E1A blk -7.
`CCC(c1nnnn1C1CCCC1)N1CCN(C/C=C/c2ccccc2)CC1` (stereo not drawn) gave D2 ag 2.3, D2 PAM -9, Six1-Eya2 inh -9 and CtBP-E1A blk -4.
CCOC(=O)c1sc(-c2ccc(Br)cc2)cc1N was read as D2 ag 1.7, gsp agonist inconclusive, gsp antagonist 1%, D2 PAM 2, Six1-Eya2 inh 18 and CtBP-E1A blk 30.
CCN1C(=O)[C@@H]2[C@@H](c3ccc(-c4cc(C(C)=O)cs4)cc3)N3CCC[C@@]3(C(=O)OC)[C@@H]2C1=O was read as D2 ag -0.8, gsp antagonist -2%, D2 PAM -2, Six1-Eya2 inh 0 and CtBP-E1A blk -3.
`COc1ccc(CN2c3c(Br)cccc3C(=O)CS2(=O)=O)cc1` gave D2 ag 0.8, gsp antagonist -24%, D2 PAM 4, Six1-Eya2 inh -2 and CtBP-E1A blk 1.
`CN(C)N1C(N)=C(C#N)C(c2ccsc2)C2=C1CCCC2=O` (stereo not drawn) gave D2 ag -2.9, gsp agonist -50%[inhibitor], gsp antagonist -3%, D2 PAM -2, Six1-Eya2 inh 2 and CtBP-E1A blk 2.

Four compounds from above, ordered by SMILES length, ascending:
CCOC(=O)c1sc(-c2ccc(Br)cc2)cc1N was read as D2 ag 1.7, gsp agonist inconclusive, gsp antagonist 1%, D2 PAM 2, Six1-Eya2 inh 18 and CtBP-E1A blk 30.
`CN(C)N1C(N)=C(C#N)C(c2ccsc2)C2=C1CCCC2=O` (stereo not drawn) gave D2 ag -2.9, gsp agonist -50%[inhibitor], gsp antagonist -3%, D2 PAM -2, Six1-Eya2 inh 2 and CtBP-E1A blk 2.
`COc1ccc(CN2c3c(Br)cccc3C(=O)CS2(=O)=O)cc1` gave D2 ag 0.8, gsp antagonist -24%, D2 PAM 4, Six1-Eya2 inh -2 and CtBP-E1A blk 1.
COCc1cc(CNC(=O)C2CCC(=O)N(Cc3cccc(OC)c3)C2)[nH]n1 (stereo not drawn) was read as D2 ag -1.2, gsp agonist -56%[inhibitor], gsp antagonist 9%, D2 PAM 20, Six1-Eya2 inh 1 and CtBP-E1A blk 8.

Compound activity as filed in PubChem BioAssay.

Random draw from the library; 1.4% or so of the library scored in one or more.
